Screening data (PubChem BioAssay)
Vaccinia mCherry: vaccinia inhibition (mCherry reporter); Vaccinia virus mCherry reporter infection, fluorescence; about a quarter of the inactives have no number; Potency, µM (highest dose often 36.5 µM), for the others: top-dose activity change, negative = inhibition, actives largely listed as inhibitors; 0.63% of 310,000 active; active = well fitted inhibition curve with a large enough effect; inconclusive = small, poorly fitted or top-dose-only effect; inactive = no such curve, though single readings can be large or run the other way; tested in A549 cells; further: nearly all actives have a fitted effect of over 35% in size; inactives centre near -10
Vaccinia Venus: inhibitors of vaccinia virus (Venus reporter). 0.46% of 330,000 active. Vaccinia virus Venus reporter expression, fluorescence. Potency, µM (doses to about 36.5 µM), for inactives: top-dose activity change, negative = inhibition, usual class: inhibitors; active means well fitted inhibition curve with a large enough effect; inconclusive means small, poorly fitted or top-dose-only effect; inactive means no such curve, though single readings can be large or run the other way; tested in A549 cells; further: nearly all actives have a fitted effect of over 30% in size; inactives centre near -10
* = called active by the depositor; i = inactive; ? = inconclusive; . = not tested or not shown; & = joins results of further samples; [ ] = another dose, or the depositor's remark. On the % scale 0 is the no-effect control and ±100 the full control effect; potency means the concentration at half of the fitted maximal effect. No enrichment for hits; 0.87% or so of the library scored in one or more.

molecule | Vaccinia mCherry | Vaccinia Venus
CCOCCCn1c(=S)[nH]c2cc(C(=O)N3CCN(c4ccccc4)CC3)ccc2c1=O | i | -5.3%
COc1cccc(OC)c1C(=O)Oc1ccc2c(c1)O/C(=C\c1ccncc1)C2=O | ? | ?
CC(C)c1cnc2c(c1SCC(=O)Nc1cccc(F)c1)c(=O)n(C)c(=O)n2C | -11.2% | -17.1%
COC(=O)c1c(C)[nH]c(C(C)=O)c1C | -9.7% | -14.1%
CCOc1ccc(-c2cc(C(=O)NCCc3ccc(OC)c(OC)c3)[nH]n2)cc1 | -14.5% | -8.4%
COc1ccccc1NC(=O)c1ccc(S(=O)(=O)N2CCCC2)cc1 | 1.8% | -16.2%
CCc1[nH]nc2c1C(c1ccc(Br)s1)C(C#N)=C(N)O2 (configuration not stated) | -7.3% | -5.7%
Cc1ccccc1NCN1C(=O)C2CCC(C)(C1=O)C2(C)C (configuration not stated) | -12.1% | -9.1%
COc1ccc(CNC(=O)c2cnc3sc4cc(OC)ccc4n3c2=O)cc1 | -5.4% | -5.9%
Fc1ccc2cnc(C3=CCCCC3)cc2c1 | -21.8% | -6.5%
NC(=O)N/N=C/c1ccccc1OCC(=O)NCc1ccccc1 | -4.4% | -12.2%
CC(C)C(=O)N1CCN(c2ccccc2NC(=O)c2cccc3ccccc23)CC1 | i | -10.5%
COc1ccc(C(=O)Nc2cc3c(oc2=O)CCCC3=O)cc1 | -13.5% | -9.3%
CCOc1ccc(N2CC(C(=O)Nc3ccc(OC)c(S(=O)(=O)N4CCCCC4)c3)CC2=O)cc1 (configuration not stated) | -15.7% | -12.5%
C/C(=N/NC(=O)CN1CCN(Cc2ccccc2)CC1)c1ccc([N+](=O)[O-])cc1 | -5.9% | -11.9%
CSc1ccc(CN(C)C(=O)CNC(=O)CNS(=O)(=O)c2ccc(C)c(C)c2)cc1 | -21.4% | -7.4%
CCOC(=O)n1cnc2nc(N)nc(SC)c21 | -15.7% | -3.6%
C=CCn1c(O)c(C(CC)=NCCc2c[nH]c3ccccc23)c(=O)[nH]c1=O | ? | -18.3%
CC(=O)Nc1ccc(NC(=O)c2ccc(-c3ccnn3C)c3ccoc23)cc1 | -13.3% | -20.9%
CN(C(=O)COC(=O)c1cc2ccccc2cc1O)c1c(N)n(Cc2ccccc2)c(=O)[nH]c1=O | -29.7% | 2.9%
CCc1cccc(C)c1NC(=O)CCCN1C(=O)C(c2ccccc2)Oc2cccnc21 (configuration not stated) | -22.7% | -18.1%
OCC1(CCOc2ccccc2)CCN(CC2=Cc3cc(Cl)ccc3OC2)CC1 | -29.0% | -25.5%
COc1cccc(-c2nc(-c3ccccc3)[nH]c(=O)c2C#N)c1 | -0.2% | -12.2%
O=[N+]([O-])c1cc2c(c(CSc3nnnn3-c3ccc(O)cc3)c1)OCOC2 | -2.3% | -17.9%
O=C(NCCn1c(C(F)(F)F)nc2cc(C(F)(F)F)ccc21)[C@H]1CCCN1c1nc(CN2CCCCC2)cs1 | i | -9.1%

One compound at a time, as listed above. Values in the order: Vaccinia mCherry	Vaccinia Venus
CC(C)c1cnc2c(c1SCC(=O)Nc1cccc(F)c1)c(=O)n(C)c(=O)n2C is listed as -11.2%	-17.1%
COC(=O)c1c(C)[nH]c(C(C)=O)c1C is listed as -9.7%	-14.1%

The list continues:
molecule | Vaccinia mCherry | Vaccinia Venus
O=C(CSc1nc2cc3c(cc2c(=O)n1CCC1=CCCCC1)OCO3)NCc1ccco1 | i | -5.3%
CCOC(=O)C1(C)CCCN(C(=O)c2ccc(C)c(F)c2)C1 (configuration not stated) | 11.6% | -2.8%
CCOC(=O)C1CCN(C(=O)c2ccccc2NC(C)=O)CC1 | -13.7% | -5.1%
Cc1ccc(-c2csc3ncnc(-n4nc(C)cc4N)c23)cc1 | . | -14.6%
Cc1noc(C)c1-c1ccc(C(=O)Nc2ccccc2)c2occc12 | 10.2% | -4.7%
CC(=O)N1CCc2cc(CNC(=O)c3ccccc3Br)ccc21 | -10.8% | -1.4%
CC(C)C(OC(=O)c1cccc(S(=O)(=O)NCC(F)(F)F)c1)C(=O)NC(N)=O (configuration not stated) | -12.8% | -10.1%
COc1ccc(S(=O)(=O)NC(C(=O)OCC(=O)Nc2ccc(N3CCOCC3)cc2)C(C)C)cc1 (configuration not stated) | -7.1% | -1.5%
COc1ccc(NCc2cc3cc4c(cc3n(CC(=O)Nc3ccc(F)cc3)c2=O)OCCO4)cc1 | -13.4% | -11.7%
COc1ccc(C2C(C(C)=O)=C(O)C(=O)N2c2nccs2)cc1 (configuration not stated) | . | -6.5%
O=C(Cn1cnc2c(OCc3ccccc3)ncnc21)N[C@H](CO)Cc1cc2ccccc2[nH]1 | i | -8.8%
COC(=O)N[C@@H]1C[C@H]2[C@@H]3CC[C@H]4C[C@@H](OC)CC[C@]4(C)[C@H]3CC[C@@]12C | -16.8% | -25.0%
Clc1ccc(CN2CCN(c3ncccn3)CC2)cc1Cl | i | 4.6%
CCOC(=O)c1cc(C(=O)OCC)c2ccccn2c1=O | -1.8% | -10.5%
CCc1cc(CNC(=O)CC2C(=O)NCCN2Cc2c(F)cccc2Cl)on1 (configuration not stated) | i | 1.2%
CS(=O)(=O)N(CC(=O)NCc1ccncc1)c1cc(Cl)ccc1Cl | i | -8.5%
NCCC(=O)NCCc1cnc[nH]1 | -1.0% | -11.7%
N#Cc1ccccc1CSc1nnc(Cc2ccccc2)o1 | -9.2% | -22.2%
CN(CC(=O)Nc1ccccc1Cl)C(=O)c1ccccc1Sc1ccccc1C#N | -2.9% | -26.4%
Cc1ccc2c(CN(C)Cc3ccc(Cl)cc3)cc(=O)oc2c1 | i | -4.8%
NNS(=O)(=O)c1ccc(N2CCCC2=O)c([N+](=O)[O-])c1 | -11.3% | -8.2%
COc1cccc(-c2sc3ccccc3c2-c2ccc(OCCN(C)C)cc2)c1 | 14.1µM* | ?
CSc1ncc(Cl)c(C(=O)N(Cc2ccc(C(C)C)cc2)C2CCS(=O)(=O)C2)n1 (configuration not stated) | -20.5% | -9.8%
Cc1ccccc1C(=O)N1CCC(C(=O)Nc2ccccc2Cl)CC1 | i | -14.0%
COc1cccc(/C=C2/SC(=S)N(CC(=O)Nc3nnc(C)s3)C2=O)c1 | 3.8% | 0.0%
C=C(C)CNC(=S)NNC(=O)c1ccncc1 | -18.5% | -10.5%
Cc1ccccc1-n1c(O)c(/C=N/NC(=O)c2ccncc2)c(=O)[nH]c1=O | -5.1% | 8.4%
CCn1c(=O)n(CCOC)c(=O)c2c3c(sc21)CCCC3 | . | -24.1%
Cc1cccc(CC2CC(=O)N(c3ncccn3)C2=O)c1 (configuration not stated) | -20.0% | -1.6%
Cc1cc(C)c(NC(=O)CSc2nncn3c2cc2oc(C)cc23)c(C)c1 | 16.5% | 2.7%
COc1ccccc1C(=O)NCC(=O)OCCCOC(=O)CNC(=O)c1ccccc1OC | i | -14.5%
Cc1ccc2nc(-c3ccc(Cl)c(NC(=O)c4cccc([N+](=O)[O-])c4C)c3)oc2c1 | 9.2% | -3.6%
CC(=O)N1CCCc2cc(S(=O)(=O)N3CCCC(C(=O)NCc4ccccc4Cl)C3)ccc21 (configuration not stated) | -2.2% | -8.8%
CC(=O)NC(CC(C)C)C(=O)NC(Cc1ccccc1)C(=O)CCl (configuration not stated) | -6.7% | -18.3%
O=C(Cn1ccc2ccccc2c1=O)NCC(=O)N1CCN(c2ccccc2F)CC1 | -12.8% | -18.7%
CCC(C)n1c(SCC(=O)NC2CCS(=O)(=O)C2)nc2ccccc2c1=O (configuration not stated) | i | -15.0%
CC1(C)CC(NS(=O)(=O)c2ccc3ccccc3c2)CC(C)(C)N1 | -9.6% | -28.7%
CSc1cccc(NC(=O)Cn2nc(C)c3sc4ccccc4c3c2=O)c1 | -18.2% | -11.9%
CCN(CC(=O)NCc1cccs1)S(=O)(=O)c1ccccc1Cl | -26.7% | -11.6%
O=C(N/N=C/c1ccc[nH]1)c1ccc(Cl)cc1 | -7.6% | -7.8%
CCOCCCNC(=O)N1CCN(S(=O)(=O)c2ccc3c(ccn3C)c2)CC1 | -10.8% | 5.1%
CCOC(=O)CNC(=O)N1CCN(c2nnc(C)c3c(C)n(-c4ccc(Cl)cc4)nc23)CC1 | -6.5% | -2.0%
CCOC(=O)CCCCC1C(CCCC(=O)OCC)C=NN1C (configuration not stated) | -4.7% | -6.2%
Cc1ccc([N+](=O)[O-])cc1NC(=O)C(Sc1ccccc1)c1ccccc1 (configuration not stated) | -12.7% | -17.2%
CCN1CCN(c2cc(C)c3cc(NC(=O)CCC(=O)N4CCN(c5ccccc5)CC4)ccc3n2)CC1 | ? | -22.7%
CCCCOc1cccc(C(=O)Nc2ccccc2N2CCCC2)c1 | -10.6% | -3.4%
O=S(=O)(Nc1ccc2ccccc2c1)c1ccccc1 | i | -10.1%
Cc1cc(=O)c2c(o1)C(=O)c1occc1C2=O | -3.5% | 12.8%
CS(=O)(=O)CC[C@@H](C(=O)NCCc1ccccc1)N1Cc2ccccc2C1=O | -5.8% | 0.5%
CN(C)S(=O)(=O)c1ccc(C(=O)Nc2cc(S(=O)(=O)Nc3ccccc3Cl)ccc2N2CCCCC2)cc1 | -15.9% | -6.4%

Further results follow.
molecule | Vaccinia mCherry | Vaccinia Venus
COc1ccc(N=C2S/C(=C\c3ccc(OCC(=O)O)cc3)C(=O)N2CCc2c[nH]c3ccccc23)cc1 | -15.9% | -6.6%
CCn1c(CN2CCN(c3cccc(Cl)c3)CC2)nc2c1c(=O)[nH]c(=O)n2C | -10.4% | -6.5%
O=C(CSc1ccc2nnc(CCNS(=O)(=O)c3ccccc3)n2n1)Nc1nc2ccccc2s1 | -9.7% | -7.8%
CC1Cc2ccccc2N1C(=O)CN1CCN(S(=O)(=O)c2cccs2)CC1 (configuration not stated) | -16.4% | -10.1%
Cc1nn(C)cc1S(=O)(=O)N1CCCC(C(=O)O)C1 (configuration not stated) | -3.6% | -17.1%
CCN1CCN(C(=O)c2ccccc2NS(=O)(=O)c2ccc(Cl)cc2)CC1 | -13.8% | 1.2%
CCN(CC)c1ccc(C(=O)Nn2cnc3ccccc3c2=O)cc1 | i | 0.5%
Cc1ccccc1N1CCN(C2=NC(=O)/C(=C/c3cn[nH]c3-c3ccccc3)S2)CC1 | -19.8% | -7.3%
Cc1ccc(Cc2c(-c3ccc(Cl)cc3)nc3ccc(Br)cn23)cc1 | -2.9% | -8.6%
COCCNC(=O)c1cn(C)c(=O)c2cc(OC)c(OC)cc12 | -14.2% | -12.0%
Cc1cc(C(C)(C)C)cc(C)c1CC1=NCCN1 | -2.6% | -7.7%&-14.0%
CCOC(=O)c1[nH]cnc1C(=O)O | . | -17.0%
O=C(O)c1c(CNCc2cccc(F)c2)c2ccccc2n1Cc1ccccc1 | 0.7% | 1.7%
O=C1c2cccc3cccc(c23)C(=O)N1CCN1CCN(CC(O)COc2ccccc2)CC1 (configuration not stated) | -3.5% | -2.9%
Cc1nc(N=Nc2cc(S(=O)(=O)O)c3cc([N+](=O)[O-])cc(S(=O)(=O)O)c3c2)c(COP(=O)(O)O)c(C=O)c1O | -2.1%&-14.3% | -11.2%&-13.3%
CCOc1cc(C(=O)NCc2ccc3c(c2)OCO3)cc(OCC)c1OCC | 10.5% | -17.0%
CCOc1ccc(NC(=O)CN2CCN(S(=O)(=O)c3ccc(Cl)cc3)CC2)cc1 | . | -20.2%
CSc1ccccc1C(=O)C1CCCN(Cc2ccccn2)C1 (configuration not stated) | -22.9% | -14.6%
CCOc1cc(CN2CCC(CO)(Cc3cccc(C(F)(F)F)c3)CC2)ccc1OC | -4.3% | -20.6%
CCN1C(=O)C(NC(C)=O)c2cc(OC)ccc21 (configuration not stated) | . | -2.8%
N#Cc1c(-c2ccccc2)nc(SCc2cccc(Cl)c2)[nH]c1=O | -1.7% | -9.8%
CC(C)n1c2ccccc2c2nc3ccccc3nc21 | -1.8% | -11.5%
Cc1ccc(CSCC(=O)N2CCN(c3ccccc3F)CC2)cc1 | -13.2% | -6.7%
O=C(c1ccccc1)C(CCc1ccccn1)CCc1ccccn1 | -14.7% | -7.2%
CN(C)c1ccc(NC(=O)C2(c3cccs3)CCOCC2)cc1 | -12.3%[7.34 µM] | -10.2%[7.34 µM]

Overlap with the part before: 3 compounds, followed by the next part.
molecule | Vaccinia mCherry | Vaccinia Venus
Cc1ccc(CSCC(=O)N2CCN(c3ccccc3F)CC2)cc1 | -13.2% | -6.7%
O=C(c1ccccc1)C(CCc1ccccn1)CCc1ccccn1 | -14.7% | -7.2%
CN(C)c1ccc(NC(=O)C2(c3cccs3)CCOCC2)cc1 | -12.3%[7.34 µM] | -10.2%[7.34 µM]
Cc1ccc2c(c1)N(C(=O)CCC(=O)NC1CCCCCC1)CCO2 | i | -0.5%
CC1(C)CC(=O)C=C(c2cccc(Cl)c2O)C1 | i | -5.9%
CC(=O)NC12CC3CC(C1)CC(C(=O)Nc1nc4ccc(F)cc4s1)(C3)C2 | i | -23.1%
CCOc1ccc(CCNC(=O)CCNC(=O)c2ccccc2Cl)cc1OCC | i | -18.1%
COc1cccc(/C(O)=C2/C(=O)C(=O)N(CCN3CCOCC3)C2c2cccnc2)c1 (configuration not stated) | i | -15.6%
